Screening results (PubChem)
CBX7 AlphaScr: blocks human CBX7 binding to H3K27me3 peptide. O95931. AlphaScreen His6-CBX7 / biotin-H3K27me3 peptide binding; active compounds read low. normalised signal (fraction of DMSO) (test concentration not listed). 66,000 compounds, 1.1% hits; in the data active = normalised signal below about 0.5;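 note: 100 nL library stock added to about 20 µL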
Target sequence (O95931 whole entry, looked up): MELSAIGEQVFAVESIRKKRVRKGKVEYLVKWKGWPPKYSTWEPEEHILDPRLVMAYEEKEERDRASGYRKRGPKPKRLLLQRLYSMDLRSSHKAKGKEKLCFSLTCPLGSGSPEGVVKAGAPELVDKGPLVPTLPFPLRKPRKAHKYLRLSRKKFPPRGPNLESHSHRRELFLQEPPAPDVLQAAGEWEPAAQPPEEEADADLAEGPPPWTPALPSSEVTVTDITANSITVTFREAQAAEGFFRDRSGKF
CBX7 AlphaScr z-score: second read-out of CBX7 AlphaScr, no call of its own (marks repeat the call); z-score; measured here: z-score of CBX7 signal; some inactives read as strong as hits; reference of the scale not given here;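 same signal on another scale; lower means less binding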
An asterisk follows results filed as active; & = joins results of further samples.

A first look:
Every second line gives: CBX7 AlphaScr, CBX7 AlphaScr z-score
1) O=C(CSc1nnc(CNC(=O)c2ccccc2F)o1)Nc1ccc2c(c1)OCO2
    0.97, -0.81
2) Cc1cc(N2CCCCC2)nc2ccc(NC(=O)C3CCC(C)CC3)cc12 (configuration not stated)
    1.1, 0.53

All compounds of this part (from the top)
Every second line gives: CBX7 AlphaScr, CBX7 AlphaScr z-score
1) O=C(CSc1nnc(CNC(=O)c2ccccc2F)o1)Nc1ccc2c(c1)OCO2
    0.97, -0.81
2) Cc1cc(N2CCCCC2)nc2ccc(NC(=O)C3CCC(C)CC3)cc12 (configuration not stated)
    1.1, 0.53
3) CCS(=O)(=O)CCc1nnc(NC(=O)Nc2cccc(C(F)(F)F)c2)s1
    1, 0.87
4) COc1ccccc1NC(=O)[C@@H](c1ccccc1)N1Cc2ccccc2C1=O
    0.87, -2
5) CC(C)C(=O)Nc1ccc(-c2nc3ncccc3o2)cc1
    0.95, -2.4
6) CCCCN(Cc1ccccc1)S(=O)(=O)c1ccc2c(c1)CCN2C(=O)C1CCC1
    0.99, -0.23
7) O=c1[nH]c2ccc(NCc3ccc(F)cc3)cc2[nH]1
    0.92, -2.6
8) CCOc1ccccc1N(CC)C(=O)Cn1ncc2c1-c1cc(C)ccc1OC2
    0.92, -1.6
9) CCN(CC)CCNC(=O)CN1N=C(c2ccc(Cl)cc2)CCC1=O
    1.1, 1.1
10) CCOC(=O)c1ccccc1NC(=O)c1cc2c(s1)-c1ccccc1OC2
    1.4, 22
11) O=C(C1=CCN(S(=O)(=O)c2ccc(Br)cc2)CC1)N1CCN(c2ccccn2)CC1
    1, 0.4
12) CCn1c(=N)n(CCOc2ccc(Br)cc2)c2ccccc21
    1, -0.022
13) O=C(Nc1nccs1)c1cccc(N2C(=O)c3ccccc3C2=O)c1
    0.98, -0.71
14) O=C(CSc1nnc(CNC(=O)c2c(F)cccc2Cl)o1)Nc1ccc2c(c1)OCCO2
    0.98, -0.28
15) Cc1ccc2nc(SCC(=O)Nc3ccccc3C(=O)O)[nH]c2c1
    1.1, 2.5
16) Cc1cc(C)n(CC(O)COc2ccc(F)cc2)n1 (configuration not stated)
    1, 1.2
17) Cc1cc(C)c2nc(N=C(N)N)nc(C)c2c1
    1, 0.43
18) O=C(CN1C(=O)c2ccccc2C1=O)Nc1ccccc1-c1nc2ccccc2[nH]1
    0.98, -0.29
19) O=C1CC(c2nc3ccccc3n2Cc2ccccc2F)CN1c1ccccc1 (configuration not stated)
    0.9, -1.4
20) CCCOc1ccccc1N1C(=O)CC(Nc2ccccc2)C1=O (configuration not stated)
    0.96, -0.9
21) Cc1c(C(=O)NCc2ccccn2)oc2ccc(S(=O)(=O)N3CCOCC3)cc12
    0.99, -0.35
22) Cc1onc(C(=O)N2CCC(C(O)(c3ccccc3)c3ccccc3)CC2)c1-c1ccccc1Cl
    0.98, -0.42
23) Cc1cc(C)c2nc(N3CCC(C(=O)O)CC3)sc2c1
    0.96, -1.4
24) Cc1ccnc(NC(=O)c2cc3sc(Cl)cc3n2C)c1
    1, 0.65
25) CCC(=O)NCCc1cc2c(OC)ccc(OC)c2[nH]c1=O
    1, 1.8
26) CC1=Nc2cc(C(=O)NC(C)C)ccc2Sc2ccccc21
    0.92, -0.97
27) CCC(C)NC(=O)CCc1nc(-c2ccc(OC)cc2)no1 (configuration not stated)
    1, 0.52
28) COc1ccc(OC)c(C2C(=O)N(C3CCC(C)CC3)CC(=O)N2CCc2ccccc2)c1 (configuration not stated)
    0.94, -1.3
29) NC(=O)c1oc2ccccc2c1NC(=O)c1c(F)cccc1F
    1.1, 0.29
30) Cc1ccc(S(=O)(=O)Nc2ccc(Br)cc2C(NCC(=O)O)c2ccccc2)cc1 (configuration not stated)
    1, 0.33
31) CC(=O)N1CCc2cc(S(=O)(=O)NC(C(=O)N3CC(C)CC(C)C3)C(C)C)ccc21 (configuration not stated)
    1, 0.39
32) CCN1CCN(C(c2cccs2)C(C)NS(=O)(=O)c2ccc(C)cc2)CC1 (configuration not stated)
    1, 0.54
33) Cc1c(C(=O)N(C)Cc2ccccc2)oc2ccc(S(=O)(=O)N3CCCCC3)cc12
    0.96, -1.4
34) Brc1ccc(COc2cccc3cccnc23)cc1
    0.96, -0.89
35) CCOC(=O)c1c(NC(=O)CN2CCOCC2)sc(C)c1C
    1, 0.43
36) CCn1c(SCC(=O)NCc2ccccc2Cl)nnc1-c1c[nH]c2ccccc12
    1.2, 1.3
37) Fc1ccc(Cc2nnc(Cc3ccccc3)o2)cc1
    0.98, -0.39
38) CCOC(CNC(=O)CN1C(=O)COc2ccc(S(=O)(=O)N3CCCC3)cc21)OCC
    1, 0.15
39) COc1ccc(-c2nn(-c3ccccc3)cc2C(=O)NCc2ccccc2)cc1
    0.98, -0.22
40) COc1ccc(Br)c(-c2nc(-c3cccc(C(F)(F)F)c3)no2)c1
    1.2, 2.6
41) CCCNC(=O)c1ccc2c(c1)N(Cc1ccc(Cl)cc1)C(=O)CS2
    1.1, 2.2
42) COc1ccccc1NC(=O)CSc1nnc(CNC(=O)c2cccs2)o1
    1.1, 2.8
43) COc1ccc(-c2cc(C(=O)Nc3cccc(Cl)c3)no2)cc1OC
    0.99, -0.098
44) CCC(C(=O)Nc1nc2ccc(S(C)(=O)=O)cc2s1)c1ccccc1 (configuration not stated)
    0.97, -0.79
45) COc1ccc(-c2nc(-c3ccc(Br)cc3)c(CC(=O)O)s2)cc1
    1.1, 0.61
46) CC(=O)N1CCc2cc(S(=O)(=O)NCc3ccccn3)ccc21
    1.1, 1.4
47) O=C(NCCCN1CCN(c2ccccc2F)CC1)C(Cc1ccccc1)NS(=O)(=O)c1cccs1 (configuration not stated)
    1.1, 1
48) CCCCN(CCCC)S(=O)(=O)c1ccc2oc(C(=O)NC(C)CC)c(C)c2c1 (configuration not stated)
    1, 0.12
49) O=C1CCc2cc(S(=O)(=O)NC(Cc3ccccc3)C(=O)NCc3ccc(Cl)cc3)ccc2N1 (configuration not stated)
    0.91, -1.6
50) Cc1sc2ncnc(Nc3cc(Cl)ccc3Cl)c2c1C
    1.1, 0.39

Going on with the list:
Every second line gives: CBX7 AlphaScr, CBX7 AlphaScr z-score
51) CCc1ccc(N(CC)C(=O)Cn2nc(Cc3ccncc3)c3ccccc3c2=O)cc1
    0.94, -3.2
52) O=C(CN1C(=O)COc2ccc(S(=O)(=O)N3CCOCC3)cc21)N1CCCC1
    1, -0.056
53) CCCn1c(SCCOc2ccc(OC)cc2)nc2ccccc21
    1.1, 0.76
54) CCc1ccc(-c2ncccc2O)cc1N
    1.1, 2.1
55) Cc1ccc(-c2noc(CCC(=O)N(C)c3ccccc3C)n2)cc1
    1, 1.4
56) CCOC(=O)c1ccc2nc(NC(=O)c3ccc(N)cc3)sc2c1
    0.97, -0.63
57) CCn1c(C(O)c2cc(C(C)(C)C)c(O)c(C(C)(C)C)c2)nc2ccccc21 (configuration not stated)
    0.91, -2.4
58) Cc1ccc2nc(SCC(=O)Nc3nc4ccccc4s3)[nH]c2c1
    0.96&1.1, -1&1.4
59) CC(C(=O)N1CCCC1)N1C(=O)CC(C)(C)Sc2ccccc21 (configuration not stated)
    0.98, -0.73
60) COc1ccc(C2CCCN2C(=O)c2cccs2)cc1 (configuration not stated)
    1, 0.63
61) Cc1cccc(-c2nc(NCCO)c3ccccc3n2)c1
    1, 0.37
62) N#Cc1cccc(Cn2c(-c3nonc3N)nc3ccccc32)c1
    1, 0.82
63) O=C(C1CCC1)N1CCc2cc(S(=O)(=O)NC3CCCc4ccccc43)ccc21 (configuration not stated)
    0.98, -0.68
64) COc1ccccc1NC(=O)CSc1ccc2nnc(-c3ccccc3)n2n1
    0.86, -1.7
65) COc1ccc(Nc2cc(C(=O)NCCC(C)C)c3ccccc3n2)c(OC)c1
    0.85, -2
66) O=C(N1CCC(Cc2ccccc2)CC1)C1(S(=O)(=O)c2ccc(Cl)cc2)CC1
    1.1, 1.4
67) COC(CCN(C)C)(c1ccccc1)c1ccccc1
    1, 0.89
68) CCN(c1ccc(F)cc1)S(=O)(=O)c1ccc2[nH]cc(C(=O)NC3CCCC3)c(=O)c2c1
    0.98, -0.22
69) Cc1ccc(-c2noc(-c3ccc(C)c(Cl)c3)n2)cc1
    1.3, 7.3
70) O=C(Nc1nccs1)C1CCN(C(=O)c2cc3sccc3n2Cc2ccc(F)cc2)CC1
    0.91, -3.8

Down the list, from the results shown:
Entries 64 to 68 in CBX7 AlphaScr, in turn: 0.86, 0.85, 1.1, 1, 0.98
Entries 64 to 68 in CBX7 AlphaScr z-score, in turn: -1.7, -2, 1.4, 0.89, -0.22

Carrying on:
Every second line gives: CBX7 AlphaScr, CBX7 AlphaScr z-score
71) CCC1=Nc2cc(C(=O)NCC3CCCO3)ccc2Sc2ccc(Br)cc21 (configuration not stated)
    0.91, -4.4
72) CCCCNC(=O)CN1C(=O)COc2ccc(C(C)(C)C)cc21
    0.93, -1.3
73) CCOC(=O)c1ccc(NCc2nc3ccccc3[nH]2)cc1
    1.2, 2.1
74) CCCc1cc(=O)n2[nH]c(-c3ccc(OC)cc3)cc2n1
    1, 0.036
75) Cc1cccc(Cn2c(COc3ccc(Cl)cc3)nc3ccccc32)c1
    0.79, -2.2
76) COc1cc(NS(=O)(=O)c2ccc(NC(=O)c3cccc(F)c3)cc2)ncn1
    1.1, 1
77) CC1CC(C)CN(CCCNC(=O)c2ccc3c(c2)ncn3C2CCCCC2)C1 (configuration not stated)
    1, -0.12
78) CCOc1ccc(OCC)c(NS(=O)(=O)c2ccc3c(c2)CCC(=O)N3)c1
    0.95, -1.1
79) CC(C(=O)NCCCN1CCC(Cc2ccccc2)CC1)n1ncc2ccccc21 (configuration not stated)
    0.58, -6.6
80) COc1ccc(-c2nc3cc(C)ccn3c2NC(=O)COc2ccc(Cl)cc2)cc1OC
    1.2, 2.1
81) O=C(NCc1ccccc1)c1ccc2c(c1)N(Cc1ccccc1)C(=O)CS2=O (configuration not stated)
    1, 0.88
82) COc1ccccc1C(=O)N1CCN(c2ccc3nnc(-c4ccc(F)cc4)n3n2)CC1
    0.99, -0.093
83) O=C(NCCCN1CCOCC1)c1ccc2c(c1)N(Cc1ccccc1)C(=O)c1ccccc1S2
    0.99, -0.42
84) CCS(=O)(=O)NC(C)C(c1cccs1)N1CCN(c2ccccc2)CC1 (configuration not stated)
    0.98, -0.53
85) Cc1ccc2sc(-c3ccc(NCc4ccccc4OCC(=O)N4CCOCC4)cc3)nc2c1
    0.94&1.2, -1&1.2
86) CCc1ccc(-c2cc(C(=O)NCCc3ccccc3)c3ccccc3n2)cc1
    1, 0.75
87) CCOC(=O)N1CCC(Nc2c(NCc3ccc(Cl)cc3)c(=O)c2=O)CC1
    0.96, -0.5
88) Cn1cnnc1SCC(=O)Nc1nc2ccccc2s1
    1.1, 3
89) O=S(=O)(c1ccc(-c2csc(Nc3ccc(Cl)c(Cl)c3)n2)cc1)N1CCCCC1
    0.86, -2.6
90) Cc1cccc(-c2cc(C(=O)Nc3cc(Cl)ccc3C)c3ccccc3n2)c1
    0.96, -0.95
91) CCCCNC(=O)C1CCN(S(=O)(=O)c2cnc[nH]2)CC1
    0.76, -2.8
92) O=C(NCc1ccccc1Cl)c1ccc2c(c1)ncn2-c1ccc(F)c(F)c1
    0.98, -0.6
93) CCn1c(SCC(=O)Nc2ccccc2F)nnc1-c1c[nH]c2ccccc12
    1.2, 1.2
94) CCCCCn1c(=O)[nH]c2cc(C(=O)N3CCN(Cc4ccc5c(c4)OCO5)CC3)ccc2c1=O
    0.96, -0.72
95) O=C(CN1N=C(c2ccccc2)CCC1=O)NCCN1CCN(c2ccccc2F)CC1
    1.1, 1.8
96) Cc1ccc(Cl)c(OCC(O)Cn2cnc3cc(C)c(C)cc32)c1 (configuration not stated)
    0.72, -7.1
97) O=C(COc1ccc(N2CC(C(=O)NCc3ccc4c(c3)OCO4)CC2=O)cc1)Nc1ccccc1 (configuration not stated)
    0.94, -1.1
98) Cc1ccc2nc(-c3ccsc3)c(Nc3ccc4c(c3)OCO4)n2c1
    0.93, -1.8
99) CCOc1cc2c(cc1OCC)C(c1cc(Br)ccc1OC)CC(=O)N2 (configuration not stated)
    0.94, -0.77
100) CCOC(=O)c1ccc(NC(=O)Cn2nnc(-c3ccccc3)n2)cc1
    1.1, 2.2
101) Cc1cc(NC(=O)c2cc(C(C)C)on2)nn1Cc1ccc(Cl)cc1
    0.91, -1
102) O=C(CSc1nccn1-c1ccc(F)cc1)Nc1ccccc1
    1.1, 0.75
103) O=C(Nc1ccc(S(=O)(=O)Nc2cnc3ccccc3n2)cc1)c1ccncc1
    1, 0.15
104) CS(=O)(=O)Nc1ccc2c(c1)nc1n2CCN(Cc2ccccc2)C1
    0.98, -0.7
105) CC(C)c1ccc(CNc2ccc3c(c2)ncn3C)cc1
    0.83, -3.9
106) OC(CNc1ccccc1Cl)Cn1c2ccc(Cl)cc2c2cc(Cl)ccc21 (configuration not stated)
    0.95, -0.31
107) O=C(CC1(O)C(=O)N(CCc2ccccc2)c2ccc(Cl)cc21)c1ccc2c(c1)OCCO2 (configuration not stated)
    0.54, -0.62
108) COc1cccc(-c2cc(C(=O)Nc3sc4c(c3C#N)CCCC4)no2)c1
    0.97, -0.18
109) CC(C)(C)C(C(Oc1ccc(Cl)cc1)n1cncn1)n1nnnc1C(c1ccccc1Cl)N1CCCCC1 (configuration not stated)
    0.76, -3.9
110) Fc1ccccc1-c1nc(NCC2CCCO2)c2ccccc2n1 (configuration not stated)
    1, 0.89
111) COc1ccc(OCC(=O)Nc2cccc(-c3nc4ccccc4[nH]3)c2)cc1
    0.79, -0.72
112) CCc1cccc(C)c1NC(=O)CCCN1C(=O)c2cccnc2C1=O
    1, 0.055
113) COc1ccc(C2CC(=O)N(CC(=O)Nc3cccc(F)c3)c3ccccc3S2)cc1 (configuration not stated)
    0.81, -3.2

Record cards (already shown). Order of values: CBX7 AlphaScr	CBX7 AlphaScr z-score
O=C(C1CCC1)N1CCc2cc(S(=O)(=O)NC3CCCc4ccccc43)ccc21 (configuration not stated) as listed: 0.98	-0.68
CCc1ccc(-c2cc(C(=O)NCCc3ccccc3)c3ccccc3n2)cc1 as listed: 1	0.75
Cc1cccc(Cn2c(COc3ccc(Cl)cc3)nc3ccccc32)c1 as listed: 0.79	-2.2
CCOC(=O)c1ccccc1NC(=O)c1cc2c(s1)-c1ccccc1OC2 as listed: 1.4	22
CCOC(=O)c1ccc(NCc2nc3ccccc3[nH]2)cc1 as listed: 1.2	2.1

This is a subset (hit frequency here may not be typical).
